# Screens from PubChem.
# rRNA inh HTS – inhibits bacterial ribosomal RNA function over humanized ribosomes. E. coli WT GFP vs humanized-ribosome RFP mutants, fluorescence, 24 h; active compounds read low; DMSO median 0, no signal -100. GFP signal change (wild-type ribosome), % (test concentration not listed). 350,000 compounds, 1.6% hits;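 active = significant combined selectivity score with lowered wild-type GFP, culture density cut under 30%, mutant RFP and density less affected; inactive = any of these conditions unmet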; also: one replicate is shown; some compounds called inactive have numbers as strong as hits
# FGF22 binding – binders of recombinant human FGF22 by thermal shift; AID 651658; calls only at 9.99 µM; 340,000 compounds, 1.5% hits; SYPRO orange fluorescence; percent of sucrose octasulfate shift, DMSO zero; Q9HCT0;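 active = melting point raised past a set limit in the mean and every replicate; three in four hits are not shown here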
# Target sequence (Q9HCT0 whole entry, looked up): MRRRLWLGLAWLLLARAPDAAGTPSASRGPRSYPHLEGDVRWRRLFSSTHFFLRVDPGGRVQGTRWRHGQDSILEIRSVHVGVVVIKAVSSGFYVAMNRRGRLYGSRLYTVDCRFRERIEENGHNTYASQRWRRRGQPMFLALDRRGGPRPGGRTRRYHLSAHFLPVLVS
# MLL AF4-AF9 inh – blocks AF4 peptide binding to human AF9; P42568; AlphaScreen, biotin-AF4 peptide binding to FLAG-AF9; inhibition, % at 10 µM; 350,000 compounds, 0.47% hits; AID 651704;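 active = every replicate reaching a set inhibition limit, whatever the replicate mean, cut at about 25% in these data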;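 also: 0% = plate neutral control median and 100% = total signal loss; the record names both 10 and 1 µM as test concentration; the first replicate is given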
# Target sequence (P42568 whole entry, looked up): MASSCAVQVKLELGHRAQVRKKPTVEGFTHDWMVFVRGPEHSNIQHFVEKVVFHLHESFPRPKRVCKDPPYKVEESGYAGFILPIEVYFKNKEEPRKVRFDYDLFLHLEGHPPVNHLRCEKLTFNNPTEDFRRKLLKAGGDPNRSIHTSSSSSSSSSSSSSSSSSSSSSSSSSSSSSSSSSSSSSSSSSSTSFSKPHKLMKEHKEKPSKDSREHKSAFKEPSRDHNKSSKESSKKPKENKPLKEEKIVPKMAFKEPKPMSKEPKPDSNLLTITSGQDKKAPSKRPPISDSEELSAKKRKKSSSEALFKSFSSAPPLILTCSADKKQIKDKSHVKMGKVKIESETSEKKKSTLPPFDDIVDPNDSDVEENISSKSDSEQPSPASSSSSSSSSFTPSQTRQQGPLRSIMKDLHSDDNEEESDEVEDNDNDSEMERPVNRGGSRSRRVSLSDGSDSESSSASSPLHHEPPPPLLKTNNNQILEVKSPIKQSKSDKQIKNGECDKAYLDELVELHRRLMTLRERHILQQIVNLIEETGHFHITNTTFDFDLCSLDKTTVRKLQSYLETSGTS
# rRNA inh HTS OD600 – recorded beside rRNA inh HTS, whose call it bears; OD600 change, %; measured here: OD600 growth;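 optical density of the mix in the first replicate; 0 = DMSO median and -100 = no signal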
# rRNA inh HTS RFP – further read-out of rRNA inh HTS, marked with its call; RFP signal change, %; measured here: RFP humanized mutant strains;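 first replicate; 0 = DMSO median and -100 = no signal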
# Active calls of the source: *; i = inactive; & = joins results of further samples. This is a subset. The share of hits here may be higher or lower than overall.
SMILES,rRNA inh HTS,rRNA inh HTS OD600,rRNA inh HTS RFP,FGF22 binding,MLL AF4-AF9 inh
COc1cccc(C(=O)Nc2ccc3c(c2)C(=O)N(C)C[C@H](OC)[C@H](C)CN(CC2CC2)[C@H](C)CO3)c1,-1,1,0.3,i,-0.7
CCNC(=O)C[C@@H]1CC[C@@H](NC(=O)C2CCC2)[C@@H](CO)O1,2,5,-0.6,i,-1.4
CCCN1[C@@H]2c3ccc(-c4ccccc4)c(=O)n3C[C@@H]2[C@@H](CO)[C@@H]1C(=O)N1CCOCC1,4,6,-0.7,i,0.7
Cn1cnc(S(=O)(=O)N2CCCCN3[C@H](CO)[C@@H](c4ccc(C#CC5CCCC5)cc4)[C@H]3C2)c1,3,-9,9.9,i,6.7
O=C(c1cccnc1)N1CC2(C1)[C@@H](c1ccccc1)[C@@H](CO)N2C(=O)C1CCC1,2,5,-0.9,i,-1.6
C[C@H](CO)N1C[C@H](C)[C@H](CN(C)S(=O)(=O)c2ccc(Cl)cc2)Oc2c(NC(=O)C3CCCCC3)cccc2C1=O,-4,-8,-0.8,i,1.7
CSc1c(N(C)C)c(=O)c1=S,11,21,1.3,i,0.4
C[C@@H]1CN([C@@H](C)CO)C(=O)c2cc(N(C)C)ccc2O[C@@H]1CN(C)S(=O)(=O)c1cccs1,-4,-1,0.4,i,8.5
CC(C)CC#Cc1ccc2c(c1)O[C@H](CN(C)CC1CCOCC1)[C@@H](C)CN([C@@H](C)CO)S2(=O)=O,-5,-9,1.0,i,5.1
C[C@@H]1CN([C@H](C)CO)S(=O)(=O)c2ccc(/C=C/c3ccccc3)cc2O[C@@H]1CN(C)C(=O)c1ccncc1,0,-20,4.1,i,14
COc1cccc(NC(=O)N[C@H]2C=C[C@@H](CC(=O)Nc3ccccc3)O[C@H]2CO)c1,-1,-1,-1.0,i,0.4
Cc1ccc(S(=O)(=O)n2cccc2/C=C/[N+](=O)[O-])cc1,2,1,2.5,i,1.2
CC(C)NC(=O)Nc1ccc2c(c1)C(=O)N([C@@H](C)CO)C[C@H](C)[C@H](CN(C)Cc1ccncc1)OCCCC[C@H](C)O2,-1,-4,-1.8,i,0.4
O=C(O)c1cc2cc(S(=O)(=O)O)ccc2cc1O,28,5,3.8,i,0.2
Cc1cccc(C)c1Nc1cn[nH]c1,2,0,-4.0,i,3.4
Cc1ccc(NC(=O)CN(C)C(=O)C2CCC2)cc1,7,5,2.4,i,0.8
O=C(C[C@H]1C[C@@H]2c3cc(NC(=O)C4CCOCC4)ccc3O[C@@H]2[C@@H](CO)O1)NCc1ccccc1F,0,3,-1.0,i,-18
COc1ccc(Cn2c(C)nc3c(c2=O)c2nc4ccccc4nc2n3Cc2ccco2)cc1,2,0,14,i,-17
C/C=C/c1ccc2c(c1)O[C@@H](CN(C)C(=O)CC1CC1)[C@@H](C)CN([C@H](C)CO)S2(=O)=O,-7,-12,-1.9,i,2.7
CC(=O)N(C)C[C@H]1Oc2ncc(C#CCc3ccccc3)cc2C(=O)N([C@@H](C)CO)C[C@@H]1C,3,13,-1.5,i,-4.6
C[C@@H]1CN([C@@H](C)CO)C(=O)c2cc(/C=C/c3ccccc3)cnc2O[C@@H]1CN(C)S(C)(=O)=O,2,7,-1.7,i,0.1
COCCCn1cc(CN2CC(N3CCN(Cc4ccccc4F)CC3)CS2(=O)=O)nn1 (stereo not given),10,4,0.1,i,-2.4
C[C@@H]1CN([C@H](C)CO)C(=O)c2cccc(NS(=O)(=O)c3cn(C)cn3)c2O[C@H]1CN(C)CC1CCCCC1,3,9,-1.1,i,5.0
COc1ccc(CNC(=O)C[C@@H]2C=C[C@H](NC(=O)c3cccc(F)c3)[C@@H](CO)O2)cc1,0,9,-2.6,i,-2.5
COc1ccc(OC)c(NC(=O)Nc2nc(CN)cs2)c1,18,17,0.0,i,3.9

# (continued)
SMILES,rRNA inh HTS,rRNA inh HTS OD600,rRNA inh HTS RFP,FGF22 binding,MLL AF4-AF9 inh
COc1ccc(CN(C)C[C@@H]2OCc3cn(nn3)CCCC(=O)N([C@@H](C)CO)C[C@H]2C)cc1,1,-2,-2.4,i,0.5
CN1[C@@H]2CN(C(=O)Nc3cc(F)ccc3F)c3ccccc3[C@@H]2[C@@H]1CO,2,13,1.1,i,0.0
COc1ccc2c(c1)CCC(=O)[C@H](O)C[C@H](c1ccccc1)OC2=O,7,-9,2.5,i,-2.9
CN(C)c1ccc(/C=C/c2ccc3c4ccccc4ccc3[n+]2-c2ccccc2)cc1,-69,-41,56,i,94*
CCCCCCN1C[C@@H](O)[C@H](n2cc(C3CC3)nn2)C[C@@H]1c1ccccc1,-44,-79,-9.9,i,3.8
C[C@H]1CCCCO[C@@H](CN(C)S(=O)(=O)c2cccs2)[C@@H](C)CN([C@@H](C)CO)C(=O)c2cc(NC(=O)Nc3ccc4c(c3)OCO4)ccc2O1,-1,10,-3.1,i,1.4
C[C@@H]1CCCCO[C@H](CN(C)C(=O)Nc2cccc3ccccc23)[C@@H](C)CN([C@H](C)CO)C(=O)c2cc(NC(=O)CCCCCC(=O)Nc3ccccc3N)ccc2O1,0,3,2.4,i,-0.3
COc1ccccc1NC(=O)N[C@@H]1CC[C@H](CCNS(=O)(=O)c2ccc(F)cc2)O[C@H]1CO,3,-1,0.9,i,0.8
CC(C)NC(=O)Nc1ccc2c(c1)C(=O)N([C@@H](C)CO)C[C@H](C)[C@@H](CN(C)Cc1ccc(Cl)c(Cl)c1)O2,-4,-9,2.4,i,1.8
C[C@@H]1CN([C@@H](C)CO)C(=O)Cc2cc(NS(C)(=O)=O)ccc2O[C@H]1CN(C)Cc1ccc(C(=O)Nc2ccccc2N)cc1,3,2,-1.0,i,-0.4
O=C(Nc1nnc([C@H]2C[C@H](O)[C@@H](CO)O2)s1)Nc1ccccc1F,0,6,-3.1,i,-13
O=C(CSc1ncn[nH]1)Nc1nc2c(F)c(F)c(F)cc2s1,-15,-14,1.1,i,1.9
CNC[C@H]1OCCCC[C@@H](C)Oc2ccc(NC(=O)NC(C)C)cc2C(=O)N([C@@H](C)CO)C[C@@H]1C,5,-4,-1.5,i,-19
O=S(=O)(N[C@@H]1CC[C@H](CCn2cc(-c3ccc(F)cc3)nn2)O[C@H]1CO)c1ccccc1F,-4,-3,0.9,i,-0.1
C[C@@H]1CCCCO[C@@H](CN(C)C(=O)c2ccccc2)[C@@H](C)CN([C@H](C)CO)C(=O)c2cc(NS(C)(=O)=O)ccc2O1,0,6,-0.2,i,-2.0
COc1ccc(S(=O)(=O)Nc2cccc3c2O[C@@H](CN(C)S(=O)(=O)c2cccs2)[C@H](C)CN([C@@H](C)CO)C3=O)cc1,1,2,-0.9,i,-0.5
CO[C@@H]1CN(C)C(=O)c2ccc(NC(=O)Nc3cc(F)ccc3F)cc2OC[C@@H](C)N(C(=O)c2cnccn2)C[C@@H]1C,-1,1,2.4,i,2.4
CCC(=O)N(C)C[C@@H]1Oc2ncc(Br)cc2C(=O)N([C@H](C)CO)C[C@H]1C,1,-4,0.8,i,-2.1&-4.8&-6.1
C[C@H](CO)N1C[C@H](C)[C@@H](CN(C)CC2CCCCC2)Oc2ccc(NS(=O)(=O)c3cn(C)cn3)cc2CC1=O,-2,-8,-0.1,i,-0.1
CC(C)NC(=O)N(C)C[C@@H]1Oc2ccc(NC(=O)Nc3ccc(C(F)(F)F)cc3)cc2CC(=O)N([C@@H](C)CO)C[C@@H]1C,2,3,-2.6,i,2.4
CCCCNC(=O)Cn1nnc(-c2ccccc2)c1COc1ccc(C(C)=O)cc1,4,10,1.1,i,-0.9
CC(C)(C)CNC(=O)C1(C)CCN1C(=O)Cc1ccc(C(C)(C)C)cc1 (stereo not given),-14,-29,-2.8,i,-0.8
C[C@@H]1CCCCO[C@@H](CN(C)C(=O)CCC(F)(F)F)[C@@H](C)CN([C@@H](C)CO)C(=O)c2cc(N(C)C)ccc2O1,0,2,-2.3,i,0.8
C[C@@H]1CN([C@H](C)CO)C(=O)c2ccccc2-c2ccccc2CO[C@H]1CN(C)S(=O)(=O)c1ccc(C#N)cc1,-2,0,-1.5,i,2.3
C[C@@H]1CN([C@@H](C)CO)C(=O)c2cc(-c3ccc(C#N)cc3)cnc2O[C@H]1CN(C)Cc1ccncc1,-2,0,-1.7,i,-7.3

# Two entries from above, with each value named.
> O=S(=O)(N[C@@H]1CC[C@H](CCn2cc(-c3ccc(F)cc3)nn2)O[C@H]1CO)c1ccccc1F
  rRNA inh HTS: -4 | rRNA inh HTS OD600: -3 | rRNA inh HTS RFP: 0.9 | FGF22 binding: i | MLL AF4-AF9 inh: -0.1
> C[C@@H]1CN([C@H](C)CO)C(=O)c2ccccc2-c2ccccc2CO[C@H]1CN(C)S(=O)(=O)c1ccc(C#N)cc1
  rRNA inh HTS: -2 | rRNA inh HTS OD600: 0 | rRNA inh HTS RFP: -1.5 | FGF22 binding: i | MLL AF4-AF9 inh: 2.3

# (cont.)
SMILES,rRNA inh HTS,rRNA inh HTS OD600,rRNA inh HTS RFP,FGF22 binding,MLL AF4-AF9 inh
O=C(CCN1CCN(c2ccccc2)CC1)NNC(=O)Cc1ccccc1Cl,8,8,-0.5,i,-0.8
CC1=C(C(=O)N(C)C)CC(CC(=O)NCCCN(C)C)C(=O)N1CCC1=CCCCC1 (stereo not given),22,9,4.1,i,-2.5
COCC#Cc1ccc([C@@H]2[C@H](CO)N3CCCCN(S(=O)(=O)c4ccc(OC)cc4)C[C@@H]23)cc1,-4,-17,6.9,i,1.6
CC1(C)CC(=O)C=C(c2ccc(-c3cnc4ccccc4c3)cc2)C1=O,-17,-31,-4.0,i,17
COc1cccc(S(=O)(=O)Nc2ccc3c(c2)OC[C@H](C)NC[C@H](C)[C@@H](OC)CN(C)C3=O)c1,3,-2,-0.5,i,-1.1
Cc1ccc(S(=O)(=O)Nc2cccc3c2O[C@@H](CN(C)S(=O)(=O)c2ccc(C)cc2)[C@H](C)CN([C@H](C)CO)C3=O)cc1,-1,-3,1.8,i,-0.4
C[C@H](NC(=O)[C@@H]1CCCN1C(=O)[C@@H]1CCCN1C(=O)c1cccc2ccccc12)c1ccccc1,1,2,5.7,i,1.1
O=S(=O)(N[C@@H]1CC[C@H](CCn2cc(-c3ccccn3)nn2)O[C@H]1CO)c1cccc(F)c1,1,6,0.0,i,0.3
CC(=O)Nc1cncc(-c2cccc(C(=O)NC3CC3)c2)n1,-5,-11,1.2,i,-0.6
CC(=O)Nc1cc(-c2cccc(F)c2)cn2c(-c3ccc(S(C)(=O)=O)cc3)cnc12,-14,-5,-1.0,i,-3.9
COc1ccc(NC(=O)Nc2ccc3c(c2)C(=O)N([C@@H](C)CO)C[C@@H](C)[C@H](CN(C)C(=O)Nc2c(C)noc2C)OCCCC[C@@H](C)O3)cc1,-2,-2,0.9,i,-0.1
COc1ccccc1C#Cc1ccc([C@H]2[C@@H](CO)N3CCCCN(S(C)(=O)=O)C[C@H]23)cc1,-3,-8,11,i,1.5
O=[N+]([O-])c1ccc2c(c1)CCCO[C@]21O[C@H](CCO)C[C@H](O)[C@H]1O,2,-7,0.8,i,-1.9
C[C@H]1CCCCO[C@@H](CN(C)Cc2ccc(C(=O)O)cc2)[C@@H](C)CN([C@@H](C)CO)C(=O)c2cc(NS(=O)(=O)c3ccc(F)cc3)ccc2O1,0,0,2.8,i,-2.8
COc1cccc(CC(=O)N2CCN(C(=O)C(=O)c3cccc(C(F)(F)F)c3)CC2)c1,-3,-8,7.1,i,-2.2
C[C@H](CO)N1C[C@H](C)[C@@H](CN(C)C(=O)Nc2ccc(C(F)(F)F)cc2)Oc2ccc(NC(=O)Nc3ccc(C(F)(F)F)cc3)cc2CC1=O,-1,5,-2.8,i,-17
CCc1nc2ccc(C(=O)Nc3cc(-c4ccccc4)ccc3OC)cn2c1N(C)CCCc1ccccc1,1,11,-5.5,i,0.6

# At a glance, 10 of the compounds above:
SMILES,rRNA inh HTS,rRNA inh HTS OD600,rRNA inh HTS RFP,FGF22 binding,MLL AF4-AF9 inh
O=C(CCN1CCN(c2ccccc2)CC1)NNC(=O)Cc1ccccc1Cl,8,8,-0.5,i,-0.8
CC1=C(C(=O)N(C)C)CC(CC(=O)NCCCN(C)C)C(=O)N1CCC1=CCCCC1 (stereo not given),22,9,4.1,i,-2.5
COCC#Cc1ccc([C@@H]2[C@H](CO)N3CCCCN(S(=O)(=O)c4ccc(OC)cc4)C[C@@H]23)cc1,-4,-17,6.9,i,1.6
CC1(C)CC(=O)C=C(c2ccc(-c3cnc4ccccc4c3)cc2)C1=O,-17,-31,-4.0,i,17
COc1cccc(S(=O)(=O)Nc2ccc3c(c2)OC[C@H](C)NC[C@H](C)[C@@H](OC)CN(C)C3=O)c1,3,-2,-0.5,i,-1.1
Cc1ccc(S(=O)(=O)Nc2cccc3c2O[C@@H](CN(C)S(=O)(=O)c2ccc(C)cc2)[C@H](C)CN([C@H](C)CO)C3=O)cc1,-1,-3,1.8,i,-0.4
C[C@H](NC(=O)[C@@H]1CCCN1C(=O)[C@@H]1CCCN1C(=O)c1cccc2ccccc12)c1ccccc1,1,2,5.7,i,1.1
O=S(=O)(N[C@@H]1CC[C@H](CCn2cc(-c3ccccn3)nn2)O[C@H]1CO)c1cccc(F)c1,1,6,0.0,i,0.3
CC(=O)Nc1cncc(-c2cccc(C(=O)NC3CC3)c2)n1,-5,-11,1.2,i,-0.6
CC(=O)Nc1cc(-c2cccc(F)c2)cn2c(-c3ccc(S(C)(=O)=O)cc3)cnc12,-14,-5,-1.0,i,-3.9
